ALR inh – inhibitors of human sulfhydryl oxidase ALR | P55789 | purified ALR, DTT oxidation, H2O2 HRP-luminol luminescence | inhibition, % (test concentration not listed) | 3.8% of 290,000 active;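 active means mean and each replicate at 75% or more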;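 further: stock transfer was 7.5 nL into about 7.5 µL; 0% = neutral wells and 100% = wells with inactivated enzyme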
Target sequence (P55789 whole entry, looked up): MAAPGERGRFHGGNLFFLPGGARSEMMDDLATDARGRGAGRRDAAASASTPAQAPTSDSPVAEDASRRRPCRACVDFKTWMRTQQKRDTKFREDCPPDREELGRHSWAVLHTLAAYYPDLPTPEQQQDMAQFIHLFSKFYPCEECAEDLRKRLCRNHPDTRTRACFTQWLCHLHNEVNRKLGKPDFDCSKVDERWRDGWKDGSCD
E coli growth – blocks Escherichia coli growth; OD600, 23 h; active compounds read low; OD600 absorbance (no concentration beside the values); 0.21% of 330,000 active; AID 1053175;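 active means OD600 absorbance below the run mean of sample wells minus 3.6 SD, in any replicate, cut at about 0.56 in these data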;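 further: stock transfer was 300 nL into about 60 µL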
HNF4A DNA FP – change in binding of human HNF4 alpha to DNA. activity change, % at 10 µM. P41235. AID 1224865. 0.3% of 360,000 active. HNF4a-FITC DNA binding, fluorescence polarization, 1 h; in the data active means activity change above about 30%, passing the limit was not always enough;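 further: controls were the assay level and a saturating level of protein; the project sought stronger binding though the title names inhibitors; some compounds called inactive have numbers as strong as hits; positive values seem to mean higher polarization but the record does not say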
FGF22 binding – binders of recombinant human FGF22 by thermal shift | calls only at 9.99 µM | Q9HCT0 | 1.5% of 340,000 active | SYPRO orange fluorescence; percent of sucrose octasulfate shift, DMSO zero | AID 651658;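 active means melting point raised past a set limit in the mean and every replicate; three in four hits are not shown here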
Target sequence (Q9HCT0 whole entry, looked up): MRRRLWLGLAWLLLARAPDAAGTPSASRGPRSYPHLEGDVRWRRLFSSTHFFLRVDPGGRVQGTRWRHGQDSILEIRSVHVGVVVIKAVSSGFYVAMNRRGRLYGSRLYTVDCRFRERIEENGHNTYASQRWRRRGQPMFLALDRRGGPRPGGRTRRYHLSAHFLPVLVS
rRNA inh HTS – inhibits bacterial ribosomal RNA function over humanized ribosomes; E. coli WT GFP vs humanized-ribosome RFP mutants, fluorescence, 24 h; active compounds read low; DMSO median 0, no signal -100; GFP signal change (wild-type ribosome), % (test concentration not listed); 1.6% of 350,000 active;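 active means significant combined selectivity score with lowered wild-type GFP, culture density cut under 30%, mutant RFP and density less affected; inactive means any of these conditions unmet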; further: one replicate is shown; some compounds called inactive have numbers as strong as hits
UCH37 inh – human UCH37 deubiquitinating enzyme inhibition. 0.33% of 330,000 active. inhibition, % (no concentration beside the values). Q9Y5K5. AID 588478. purified proteasome/UCH37, Ub-AMC cleavage fluorescence;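 active means mean of two replicates above 20%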;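 further: 0% = compound-free wells with enzyme and 100% = wells lacking proteasome; stock transfer was 100 nL into about 20 µL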
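Material: human UCH37 enzyme supplied as purified proteasome complex. Measure: % inhibition of Ub-AMC cleavage fluorescence. Medium: pH 7.4 Tris-HCl (50 mM) with ovalbumin, ATP-MgCl2, DTT. Times: 30 min preincubation with enzyme, 25 min cleavage at room temperature. Detection: AMC fluorescence intensity at 355/460 nm.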
B2AR ag – human beta-2 adrenergic receptor agonism by FAP. P07550. Am2.2-beta2AR cells, FAP receptor internalization, flow cytometry; reference of the scale not given here. response, % (test concentration not listed). 0.43% of 340,000 active;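 active means response above a set limit, near 3 SD of response in nonfluorescent compounds, cut at about 42% in these data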;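 further: stock transfer was 100 nL into about 11 µL; a reference agonist was the positive control; negative values mostly stem from fluorescent compounds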
Target sequence (P07550 whole entry, looked up): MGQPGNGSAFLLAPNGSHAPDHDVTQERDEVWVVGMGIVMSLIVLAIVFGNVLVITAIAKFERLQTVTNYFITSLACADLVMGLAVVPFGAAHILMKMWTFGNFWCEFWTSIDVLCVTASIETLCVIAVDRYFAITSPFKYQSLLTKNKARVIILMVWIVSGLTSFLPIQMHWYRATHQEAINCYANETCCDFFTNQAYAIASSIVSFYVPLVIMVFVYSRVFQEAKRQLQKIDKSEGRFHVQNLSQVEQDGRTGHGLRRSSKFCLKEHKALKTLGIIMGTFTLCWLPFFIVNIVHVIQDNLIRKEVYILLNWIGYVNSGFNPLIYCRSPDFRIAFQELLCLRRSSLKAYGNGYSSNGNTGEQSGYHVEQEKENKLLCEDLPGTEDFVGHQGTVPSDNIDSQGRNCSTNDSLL
rRNA inh HTS OD600 – also measured in rRNA inh HTS; calls as there; OD600 change, %; measured here: OD600 growth;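 optical density of the mix in the first replicate; 0 = DMSO median and -100 = no signal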
rRNA inh HTS RFP – recorded beside rRNA inh HTS, whose call it bears; RFP signal change, %; measured here: RFP humanized mutant strains;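 first replicate; 0 = DMSO median and -100 = no signal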
Numbers without * were called inactive; i = inactive; nt = no result given. This is a subset (hit frequency here may not be typical).

SMILES	ALR inh	E coli growth	HNF4A DNA FP	FGF22 binding	rRNA inh HTS	rRNA inh HTS OD600	rRNA inh HTS RFP	UCH37 inh	B2AR ag
CN(C)C(=O)c1c(C(F)(F)F)nn(C)c1Cl	-4	0.66	1.5	i	35	15	1.7	2.6	3
COCCNC(=O)C1(C)CCCN(Cc2cn(C)c3ccccc23)C1 (configuration not stated)	nt	nt	-2.2	i	3	11	-0.6	nt	nt
Cc1ccc(N2CCN(c3ccc(C)cc3)C2c2ccncc2)cc1	40	0.78	-0.6	nt	nt	nt	nt	1.6	-3
Cc1ccc(C(=O)ON=C2CCN(S(=O)(=O)c3ccccc3)CC2)cc1	-9	0.65	-0.8	nt	nt	nt	nt	2.3	6
CC(C)COc1ncnc2c1sc1nc3c(cc12)COC(C)(C)C3	-5	0.65	nt	nt	nt	nt	nt	-0.6	nt
COc1cc(C2CC(c3cccs3)=NN2C(=O)CCl)ccc1OC(F)F (configuration not stated)	3	nt	0.5	i	-14	-11	0.2	nt	-522
COc1ccc(N(CC(=O)N/N=C/c2ccc(OC)cc2OC)S(=O)(=O)c2ccccc2)cc1	-4	nt	-0.3	i	7	2	-0.7	nt	7
Nc1nc(NCc2ccco2)nc(N2CCCC2)c1[N+](=O)[O-]	5	0.67	1.5	i	2	7	-0.6	7.8	-1
COc1ccc(N2CCN(Cc3nc(Cc4cccc(F)c4)no3)C(C)C2)cc1 (configuration not stated)	98*	0.74	1.2	nt	-23*	-15*	0.7*	3.8	-8
O=C(COC(=O)c1ccc([N+](=O)[O-])s1)Nc1ccc(Cl)cn1	-21	0.69	-5.1	i	11	14	3.0	6.3	10
CCCCCOc1ccc(C(=O)OCC(=O)Nc2cc(C)on2)cc1	nt	0.67	1.1	i	9	3	1.3	3.2	1
Cc1ccc(NC(=O)CN2CCc3ccccc3C2)cc1S(=O)(=O)N1CCOCC1	-8	0.7	2.5	nt	nt	nt	nt	5.7	-2
CN(C1CCCCC1)S(=O)(=O)c1ccc2c(c1)c(=O)c(C(=O)N1CCc3ccccc3C1)cn2C	-1	0.74	1.8	i	2	-6	-2.5	-4.0	-1
O=C(c1cc2ncc(Br)cn2n1)N1CCOCC1	-11	0.67	-0.7	i	27	11	-3.9	1.5	-8
COCCCn1c(C)cc(C(=O)CN2c3cccc4cccc(c34)S2(=O)=O)c1C	2	0.73	-0.1	i	-15	-8	2.8	-46	-6
COc1ccc(N2C(=O)CC3(CCCC3)CC2=O)cc1	-7	0.7	-2.8	nt	nt	nt	nt	1.3	3
COCc1nc(-c2ccc(-c3ccccc3)nc2OC)no1	-1	0.72	0.3	nt	nt	nt	nt	2.1	-6
CCc1nnc(NC(=O)CN2CCN(c3ccccc3F)CC2)s1	-2	0.7	0.2	i	6	9	0.9	2.8	4
COc1ccc(-c2cc(C(F)F)n3ncc(C(=O)Nc4ccc(C(=O)N5CCOCC5)cc4)c3n2)cc1	nt	0.74	0.2	i	4	6	2.6	-12	27
C/C(=N\NC(=O)CSCc1ccc([N+](=O)[O-])cc1)c1ccccc1	-3	nt	2.5	i	14	13	-1.0	nt	3
CN(c1ccccc1C(=O)O)S(=O)(=O)c1ccc2[nH]c(=O)[nH]c2c1	-19	0.65	1.8	i	17	14	1.6	5.3	-8
O=C(NC1CCCCCC1)C1C2C=CC3(CN(Cc4cccnc4)C(=O)C13)O2 (configuration not stated)	0	0.8	-1.2	i	1	8	-8.4	2.5	7
CCC(=O)c1ccc(OCC(=O)OCC(=O)c2cc(C)n(C3CC3)c2C)cc1	nt	0.65	3.1	nt	8	0	2.4	0.8	-2
CCOC(=O)c1nc(C)n(-c2cc(OC)c(Cl)cc2Cl)n1	23	0.71	2.7	nt	14	6	-0.3	0.3	-6
O=C(NCc1cccc(F)c1)c1cccc2c1C(=O)c1ccc(N3CCC(Cc4ccccc4)CC3)cc1S2(=O)=O	4	0.74	-80	nt	nt	nt	nt	0.6	-36
O=c1cc(C(F)(F)F)[nH]c2ccc(OC(F)(F)F)cc12	nt	nt	1.9	i	nt	nt	nt	nt	9
Cc1ccccc1Nc1ncnc2c1cnn2C	-5	0.7	4.2	i	6	8	-1.6	0.4	0
CN(C)/C=C1/N=C(c2ccccc2)OC1=O	-7	0.69	-0.2	nt	nt	nt	nt	13	-3
CCOc1ccc(N/C=C/C(=O)c2ccc(OC)cc2)c([N+](=O)[O-])c1	-5	0.72	-6.1	nt	nt	nt	nt	3.6	-6
COc1ccc(NC(=O)CSc2nnc(Cc3cccn3C)n2CCc2ccccc2)c(OC)c1	0	0.61	0.9	i	-5	-15	0.6	2.9	6
Cc1cc(C(=O)COc2cccnc2[N+](=O)[O-])c(C)n1Cc1ccco1	nt	0.67	-3.3	i	20	17	11	1.0	1
O=C1S/C(=C\c2ccc(Cl)cc2)C(=O)N1CCn1cnnn1	11	0.68	0.4	nt	nt	nt	nt	4.9	-4
O=[N+]([O-])c1cc(C(F)(F)F)c(Cl)cc1N1CCN(CCO)CC1	-1	0.65	1.1	nt	nt	nt	nt	4.7	5
O=C(C[n+]1cccc(Br)c1)c1cccs1	-1	0.71	-5.9	i	7	3	0.1	3.6	8
N#CC1=C(N)Oc2n[nH]c(-c3cccs3)c2C1c1ccsc1 (configuration not stated)	19	0.72	-32	nt	nt	nt	nt	-2.9	0
Cc1cccc(C(C)(C)C)c1OCCOCCN1CCCC1	2	0.67	2.3	nt	nt	nt	nt	1.6	4
CC(=O)OCC(=O)[C@@]12OC3(CCCC3)O[C@@H]1C[C@H]1[C@@H]3CCC4=CC(=O)C=C[C@]4(C)[C@@]3(F)[C@@H](O)C[C@@]12C	-5	nt	1.1	i	nt	nt	nt	1.6	20
COc1ccc2c(c1)c(=O)c(C(=O)c1ccc(Cl)cc1)cn2CC(=O)Nc1ccc(F)cc1	5	0.71	-1.3	i	10	15	-3.4	0.4	17
Cc1nnc(N/N=C/c2ccccc2F)n1N	-23	nt	-0.3	i	7	10	0.5	nt	-8
COC(=O)C1CCN(C(=O)Nc2ccccc2)CC1	2	0.67	-1.9	i	-2	4	-1.9	1.4	4
CCN(CC)c1ccc2cc(-c3nnc(-c4ccncc4)o3)c(=O)oc2c1	nt	0.71	-84	nt	nt	nt	nt	-2.6	-43
Cc1cc(C)n2nc(SCC(=O)N(CCC#N)c3ccc(F)cc3)nc2n1	1	0.62	-5.2	i	8	-1	3.5	2.7	-3
N#CC1=C(N)SC2(CCCCC2)SC1c1ccccc1 (configuration not stated)	94*	0.72	0.8	nt	nt	nt	nt	5.3	1
CCN(C(=O)c1cc2c(=O)[nH]c3ccc(C)cc3c2s1)c1ccc(F)cc1	-2	0.73	-0.6	i	5	3	-5.5	-21	-3
Cc1nnc(Sc2c(N)n(C)c(=O)n(C)c2=O)s1	-8	0.7	-0.4	nt	nt	nt	nt	1.5	0
CC(C)C1CC(=O)NC(SCC(=O)Nc2ccc(Br)cc2)=C1C#N (configuration not stated)	-1	0.77	1.0	nt	nt	nt	nt	1.7	-4
CCc1nc(N2CCN(C(=O)c3ccco3)CC2)c(C#N)c2c1COC(C)(C)C2	-2	0.61	2.1	i	2	1	-2.9	-159	10
CCCOc1ccc(CNC(=O)CCC(=O)n2ncc3cc(C)ccc32)cc1	4	0.7	-1.4	i	10	11	0.3	3.0	-2
CCOC(=O)c1c(CSc2ccc(CC)cc2)oc2ccc(O)c(CN(C)C)c12	-3	0.64	3.4	i	-53	-79	-27	3.7	16
CC(=O)N1c2ccccc2C(=O)OC1c1cccnc1 (configuration not stated)	-3	0.69	-0.1	nt	nt	nt	nt	-1.7	-5
CC(c1ccccn1)C(C)(O)C(C)c1ccccn1 (configuration not stated)	nt	0.64	5.9	i	5	5	-0.5	-3.8	-4
CCOC(=O)N1CCC(NC(=O)C(Cc2ccccc2)NC(=O)C2CCCCC2)CC1 (configuration not stated)	-5	0.71	1.4	nt	nt	nt	nt	-0.7	17
O=C(CCc1nc2ccccc2[nH]1)Nc1ccccc1	nt	0.8	2.3	nt	nt	nt	nt	4.3	-2
CC(C)=NNC(=O)CN1C(=O)NC2NC(=O)NC21 (configuration not stated)	nt	nt	0.6	i	16	14	6.5	nt	6
O=C(/C=C/c1ccccc1)Oc1cccc(C(=S)N2CCOCC2)c1	-1	nt	-0.9	i	-6	-4	0.5	nt	7
CCOc1cccc(-c2cc(C(=O)NN)[nH]n2)c1	79*	0.72	-0.2	i	-9	-4	4.5	3.9	-6
CCCN(CC(=O)c1cc(C)n(C)c1C)S(=O)(=O)c1cccc(C(F)(F)F)c1	22	0.72	5.0	nt	nt	nt	nt	0.3	-10
C/[N+]([O-])=C\CC(=O)c1ccc(-c2ccccc2)cc1	-2	0.66	-0.5	i	12	5	-0.6	2.7	0
CSCCC(NC(=O)COc1ccccc1)C(=O)N1CCN(c2ccccc2Cl)CC1 (configuration not stated)	1	0.69	-0.8	i	-19	-32	-3.5	1.6	-10
Cc1ccc(NC(=O)CN2CCc3cc4c(cc3C2C)OCCCO4)cc1C (configuration not stated)	-11	0.59	-5.3	i	-28	-64	1.5	-0.7	-3

Quoted at random: two compounds from above, in no set order.
SMILES	ALR inh	E coli growth	HNF4A DNA FP	FGF22 binding	rRNA inh HTS	rRNA inh HTS OD600	rRNA inh HTS RFP	UCH37 inh	B2AR ag
CSCCC(NC(=O)COc1ccccc1)C(=O)N1CCN(c2ccccc2Cl)CC1 (configuration not stated)	1	0.69	-0.8	i	-19	-32	-3.5	1.6	-10
CCCOc1ccc(CNC(=O)CCC(=O)n2ncc3cc(C)ccc32)cc1	4	0.7	-1.4	i	10	11	0.3	3.0	-2

Later entries.
SMILES	ALR inh	E coli growth	HNF4A DNA FP	FGF22 binding	rRNA inh HTS	rRNA inh HTS OD600	rRNA inh HTS RFP	UCH37 inh	B2AR ag
Cc1cc(C)nc(-n2nc(C)cc2NC(=O)COC(=O)CCC(=O)c2cccs2)n1	-3	0.76	-2.3	nt	nt	nt	nt	1.1	0
C=CCSc1nnc2c(n1)[nH]c1c(C)cccc12	-4	0.68	-0.4	i	2	-4	-1.7	2.5	0
O=C(CSc1ccc2nnc(-c3ccccn3)n2n1)Nc1ccc(F)cc1F	-11	0.68	3.4	i	9	6	0.3	1.1	0
Cc1ccc(S(=O)(=O)N[C@H](C(=O)OCn2nnc3ccccc3c2=O)C(C)C)cc1	0	0.75	0.1	nt	nt	nt	nt	-0.5	-5
O=C1NCCN(Cc2ccoc2)C1CC(=O)N(CCO)Cc1ccccc1 (configuration not stated)	-15	0.66	0.5	nt	11	14	4.7	3.9	1
Cc1cccc(C2=NOC(=O)/C2=C\c2ccccc2F)c1	-6	0.69	-3.4	i	nt	nt	nt	1.6	6
C=CCc1ccc(OCCCOc2ccc(C)c(C)c2)c(OC)c1	-7	0.72	2.9	nt	nt	nt	nt	1.3	5
CCc1nc2ccc(C(=O)NCCOc3ccc(OC)cc3)cn2c1N(C)CCCc1ccccc1	nt	nt	6.0	i	0	6	0.6	nt	nt
CCOC(=O)CCC(NC(=O)CC(=O)NC(CCC(=O)OCC)C(=O)OCC)C(=O)OCC (configuration not stated)	-2	0.66	-4.0	i	12	11	-12	0.0	-1
O=C(CN1CCN(c2ccccn2)CC1)Nc1cc(C(F)(F)F)ccc1Cl	-2	0.72	-1.9	nt	nt	nt	nt	4.8	2
COCCCn1c(SCc2ccc(OC)cc2)nc2cc(OC)c(OC)cc2c1=N	1	0.75	2.9	nt	nt	nt	nt	-3.5	10
COc1ccc(S(=O)(=O)N2CCOC2CNC(=O)C(=O)NCc2cccnc2)cc1C (configuration not stated)	-5	0.68	-3.2	i	-1	-5	-8.6	-0.2	-2
C[C@H](CO)N1C[C@H](C)[C@@H](CN(C)C(=O)Nc2ccc3c(c2)OCO3)Oc2c(NC(=O)Nc3ccc4c(c3)OCO4)cccc2C1=O	13	0.79	3.1	i	1	-5	-9.0	-55	2
COc1cccc(CN2CCN(Cc3cc4ccccc4[nH]3)CC2CCO)c1 (configuration not stated)	-8	0.66	7.0	i	3	6	-1.4	1.0	8
